# PINK1 modulator: PINK1 expression modulation; AID 624263; actives 0.2% (n = 410,000); Potency, µM (highest dose often 76.6 µM), for the others: at the top dose activation (PINK1 increase), usual class: activators; PINK1 immunofluorescence, high-content cytometry, 24 h; active = well fitted activation curve with a large enough effect; inconclusive = small, poorly fitted or top-dose-only effect; inactive = flat fitted curve, though single readings scatter; cell line not stated here;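 also: potency is read from the fitted curve at half-maximal effect; % of control where 0% means no effect; nearly all actives have a fitted effect of over 65% in size; a mitochondrial uncoupler was the plate control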
#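 Decision-based qHTS: stable cells, 24 h exposure to five compound concentrations, CCCP as control. Fixed cells stained for PINK1 plus nuclear, mitochondrial and cell markers, cytometer read.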
# D2 agonist: agonists of human D2 dopamine receptor (beta-arrestin); AID 624465; DiscoveRx PathHunter D2 beta-arrestin, luminescence, 90 min; 100% = 57 uM dopamine signal; P14416; actives 0.084% (n = 360,000); activation, % (no concentration beside the values); in the data active = activation above about 40%; inconclusive = about 15% to 40%; inactive = below about 15%; also: compound concentration not given in the record; the text of the record calls up to 30% inactive
# Target sequence (P14416 whole entry, looked up): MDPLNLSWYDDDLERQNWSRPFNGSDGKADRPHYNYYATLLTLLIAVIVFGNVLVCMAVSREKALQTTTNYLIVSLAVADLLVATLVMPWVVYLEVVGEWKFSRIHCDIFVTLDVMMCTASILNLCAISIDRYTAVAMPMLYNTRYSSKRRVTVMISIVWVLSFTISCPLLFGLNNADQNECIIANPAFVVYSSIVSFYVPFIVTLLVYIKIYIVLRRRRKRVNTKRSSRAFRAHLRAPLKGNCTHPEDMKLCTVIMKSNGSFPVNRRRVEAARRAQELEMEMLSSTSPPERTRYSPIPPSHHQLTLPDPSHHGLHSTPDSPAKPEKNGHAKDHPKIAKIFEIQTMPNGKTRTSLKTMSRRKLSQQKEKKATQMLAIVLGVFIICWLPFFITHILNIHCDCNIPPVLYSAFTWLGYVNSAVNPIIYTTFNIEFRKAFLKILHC
#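 Agonist mode: compounds alone added to overnight-plated D2 PathHunter cells for 90 min at 37 C, with 57 uM final dopamine (EC100) defining full response. Beta-arrestin recruitment detected by chemiluminescent reagent, read after 1 h at ambient temperature.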
# TRPML1 agonist: activates the human TRPML1 channel; TRPML1-expressing cells, Ca2+ dye fluorescence, FDSS; host cell line not named in the record; reference of the full effect not given here; activation, % (test concentration not listed); AID 624414; actives 0.12% (n = 410,000); in the data active = activation above about 50%; inconclusive = about 30% to 50%; inactive = below about 30%; also: 0% is about no effect; the text of the record puts the active cut at 80%
# Target sequence (Q9GZU1 whole entry, looked up): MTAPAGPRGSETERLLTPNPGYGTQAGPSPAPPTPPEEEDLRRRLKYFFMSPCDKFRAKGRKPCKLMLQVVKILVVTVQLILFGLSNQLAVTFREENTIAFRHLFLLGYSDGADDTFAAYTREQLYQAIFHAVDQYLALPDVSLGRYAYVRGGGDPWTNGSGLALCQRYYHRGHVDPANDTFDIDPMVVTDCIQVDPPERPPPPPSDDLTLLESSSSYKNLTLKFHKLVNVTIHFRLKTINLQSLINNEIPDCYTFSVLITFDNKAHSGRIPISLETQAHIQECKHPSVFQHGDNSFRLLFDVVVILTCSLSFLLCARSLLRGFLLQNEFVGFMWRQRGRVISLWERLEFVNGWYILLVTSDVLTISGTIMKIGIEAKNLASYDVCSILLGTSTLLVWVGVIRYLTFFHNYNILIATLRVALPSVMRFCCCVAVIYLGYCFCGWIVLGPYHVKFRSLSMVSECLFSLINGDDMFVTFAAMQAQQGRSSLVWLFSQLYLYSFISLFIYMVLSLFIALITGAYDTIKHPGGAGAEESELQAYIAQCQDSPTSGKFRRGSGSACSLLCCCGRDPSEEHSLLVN
#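 In this qHTS format, compounds were pin-transferred onto Ca8-dye-loaded TRPML1-DL cells induced with Tet overnight, and intracellular Ca2+ fluorescence was recorded kinetically for 110 s after a 10 s baseline. A subsequent 4uM final 54-4 (EC80) addition followed by a second 110 s read served as the antagonist phase.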
# TRPML1 blocker: inhibitors of human TRPML1 channel; Q9GZU1; TRPML1-inducible cells, Ca2+ dye fluorescence, FDSS; stronger effect = lower value; inhibition of EC80 agonist-evoked calcium signal; activity change, negative = inhibition, % (test concentration not listed); actives 0.02% (n = 390,000); AID 624415; in the data active means activity change below about -50%; inconclusive means about -30% to -50%; inactive means above about -30%;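 also: stimulus is agonist 54-4 at its EC80 concentration; % is scaled to controls: 0 for no effect and ±100 for the full control effect; compound concentration not given in the record; the text of the record puts the active cut at -80%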
#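 TRPML1-DL cells, Tet-induced overnight (~16 h, 37 °C) at 1,500 cells/well, were loaded with Ca8 no-wash dye plus quencher for 45-90 min at room temperature. Compounds were pinned during FDSS kinetic reading; agonist 54-4 at EC80 (4 uM final) then added.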
# Six1-Eya2 inh: Six1/Eya2 interaction inhibition; actives 0.56% (n = 360,000); Q15475+O00167; AID 651725; AlphaScreen GST-Six1/His-Eya2 binding, biochemical; stronger effect = lower value; control for the full effect not named in the record; activity change, % (concentration not given with the values); in the data active = activity change below about -65%; inconclusive = about -30% to -65%; inactive = above about -30%; also: % is scaled to controls: 0 for no effect and ±100 for the full control effect
#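 Homogeneous AlphaScreen proximity assay pairing GST-Six1 with His-tagged Eya2 (added as 5X mix: 250 nM and 500 nM) in 50 mM Tris pH 8.0, 300 mM NaCl, 1 mM TCEP. Glutathione donor and nickel acceptor beads; 1 h, 37 °C, dark.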
# CtBP-E1A inh: CtBP/E1A binding inhibition; AlphaScreen GST-E1A/His-CtBP binding, 1536-well; stronger effect = lower value; control for the full effect not named in the record; activity change, % (test concentration not listed); actives 0.49% (n = 340,000); AID 651724; in the data active means activity change below about -65%; inconclusive means about -30% to -65%; inactive means above about -30%; also: % is scaled to controls: 0 for no effect and ±100 for the full control effect; compound concentration not given in the record
#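 Steps: dispense buffer (Tris pH 8.0, NaCl 300 mM, TCEP 1 mM, BSA, Tween 20); add 5X protein mix (GST-E1A, His-CtBP, 125 nM each); pin 23 nL compound; 2 h at 37 °C, dark; add 5X beads (50 ug/mL); 1 h; read.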
# Numbers without * were called inactive; ? = inconclusive; · = not tested or not shown; & = joins results of further samples; [ ] = remark or other dose.
Compound,CtBP-E1A inh,PINK1 modulator,D2 agonist,TRPML1 blocker,Six1-Eya2 inh,TRPML1 agonist
COc1ccc(-c2n[nH]c(=S)n2-c2ccc(Br)cc2)cc1OC,2.3,-0.4%,-4.8,1.3,-3.8,0.2
O=C(CCN1C(=O)C2C3C=CC(C4CC34)C2C1=O)Nc1ccc(Cl)cc1O (centres undefined),-7.1,2.2%,3.2,1.4,-25.7,-0.3
Cc1ccc(CNC(=O)Cn2c(=O)n(-c3ccc(Cl)cc3)c(=O)c3c(C)c(C)sc32)cc1,·,0.3%,·,-1.6,·,-0.5
COc1ccccc1N1CCN(C(=O)C2CCN(S(=O)(=O)c3ccc(Cl)cc3)CC2)CC1,-6.1,2.2%[38.3 µM],-1.0,12.6,-9.3,0.3
CCCCN1C=C(C(=O)OCC)C(=O)CC1,-0.8,-0.9%,1.1,3.0,2.5,0.0
Cc1ccc(NC(=O)Cc2c(O)c3ccccc3[nH]c2=O)c(C)c1,6.0,4.9%,-1.6,-10.4,0.6,-0.8
COc1ccc(-c2nc(SCC(=O)NC3CCCC3)c(-c3ccc(C)cc3)[nH]2)cc1OC,·,0.2%,·,19.4,·,0.9
CCOc1cccc2cc(C(=O)N3CC(C)OC(C)C3)c(=O)oc12 (centres undefined),·,1.6%,2.4,·,-2.7,·
CCCN1CCN(C(=S)Nc2ccccc2C(F)(F)F)CC1,-0.3,-0.6%,-4.2,13.6,11.0,0.1
CC(C)NS(=O)(=O)c1cc(C(=O)O)ccc1Cl,-9.9,1.6%,-8.0,6.2,13.5,-1.5
C=CCNc1ccc(N2C(=O)CCCC2=O)cc1[N+](=O)[O-],3.6,0.6%,-5.4,·,-3.8,·
O=C(Nc1ccc2nc3n(c(=O)c2c1)CCCC3)c1cc([N+](=O)[O-])ccc1F,-15.3,-3.3%,0.5,-14.8,-29.3,-0.7
Cc1oc(-c2cccc(C(F)(F)F)c2)nc1CN1CCN(c2ccccn2)CC1,-2.6,8.9%,-0.6,-4.3,-6.8,0.4
CCN(C(=O)COC(=O)C1CC1C)c1c(N)n(Cc2ccccc2)c(=O)[nH]c1=O (centres undefined),0.4,1.1%,-3.3,-8.8,2.1,-0.1
COC(=O)CNC(=O)C(Cc1ccccc1)NS(=O)(=O)c1ccc2c(c1)c(=O)n(C)c(=O)n2C (centres undefined),·,0.1%&0.9%,-5.5,11.4&-0.6,4.1,0.9&0.1
O=C(COc1cc(O)c2c(=O)cc(-c3ccccc3)oc2c1)c1ccccc1,0.3,5.8%,-0.7,10.2,-1.1,-1.2
Cc1ccc2[nH]c(=O)c3cc(C(=O)NC(C)C)sc3c2c1,16.0,2.0%,1.5,-14.6,-1.4,0.4
CC1=C(C(=O)N(C(C)C)C(C)C)CC(CC(=O)NC2CCCCC2)C(=O)N1Cc1ccc(F)cc1 (centres undefined),2.2,-0.6%,-1.9,·,0.3,-0.7
Cc1nn(C(=O)c2ccc(Cl)cc2)c(C)c1S(=O)(=O)N1CCOCC1,·,-0.2%,·,-3.7,·,1.5
Cc1cc(NC(=O)c2cccc(N3C(=O)CCC3=O)c2)no1,-20.6,2.1%[38.3 µM],-3.3,-16.9,-70.6*,-0.4
Cc1ccc(N=C2NC(=O)c3cc([N+](=O)[O-])ccc32)cc1,-4.6,0.6%,5.1,-4.0,-8.0,1.6
Cc1ccc(CN2CCC(C(=O)c3ccc(F)cc3)CC2)cc1,-3.2,3.9%,-6.5,8.4,-5.2,0.2
O=C(COC(=O)c1cc(S(=O)(=O)N2CCCCC2)ccc1N1CCOCC1)c1ccc(F)cc1,-8.6,1.5%,-2.0,7.1,-0.5,1.9
Cc1cccc(NC(=O)CSc2nnc3c4ccccc4n(C)c3n2)c1,·,0.8%,·,21.4,·,-0.5
CC(=O)Nc1ccc(NC(=O)COC(=O)c2ccco2)cc1,·,-1.0%,-27.9,13.2,8.5,0.2
COc1cccc(CN(C(=O)COc2ccc(Cl)cc2)C2CCS(=O)(=O)C2)c1 (centres undefined),0.0,-1.5%,-0.6,-2.8,14.3,0.5
COc1ccc(C(=O)NCCn2cc(SCC(=O)NCCc3ccc(OC)c(OC)c3)c3ccccc32)cc1,·,2.3%,·,-5.2,·,4.1
N#CCCN(C(=O)COc1ccc(Br)cc1F)c1ccc(F)cc1,·,-0.7%,1.7,0.6,3.9,0.6
CCO[C@H]1OC(C(=O)NCc2nc3ccccc3[nH]2)=C[C@@H](c2ccc(C(F)(F)F)cc2)[C@@H]1CCCO,-8.1,28.8%,1.2,-4.7,-11.9,-0.6
Cc1ccc(N2C(S)=C(C#N)C(=O)NC2c2ccco2)cc1 (centres undefined),-5.6,2.3%,-1.9,18.2,-1.8,-0.4
Cc1ccc(S(=O)(=O)n2nc(C)c(S(=O)(=O)N3CCCCCC3)c2C)cc1C,·,1.1%,·,6.3,·,-0.2
Cc1ccc(S(=O)(=O)N2CCCCC2)cc1NC(=O)c1cncc(Br)c1,3.3,3.9%,-2.7,-9.6,5.0,0.6
COc1ccc(NC(=O)C2=C(C)NC(=O)NC2c2ccccc2[N+](=O)[O-])cc1 (centres undefined),-0.3,-0.9%,-2.6,-8.0,-1.4,1.6
Cc1ccc(C)c(N2CCN(C(=O)C3CCCN(S(=O)(=O)c4c(C)noc4C)C3)CC2)c1 (centres undefined),1.0,0.6%,3.7,63.7,-0.2,0.4
CCSC1=C(C#N)C2(CCCCC2)C2=C(CC(C)(C)CC2=O)N1,5.2,0.3%,5.6,48.8,10.7,3.8
NS(=O)(=O)c1ccc(S(=O)(=O)N2CCCC2)cc1,0.0,1.1%,-3.0,-5.9,18.1,-0.6
Cc1cc(C)c(NC(=O)C[N+](C)(C)CC(O)COc2cccc3ccccc23)c(C)c1 (centres undefined),-6.0,1.1%,-7.1,22.6,16.5,-0.5
Cn1c(=O)[nH]c2cc(Cl)cnc21,3.3,-0.6%,-2.1,-7.8,10.9,-0.2
COc1ccc(C2=Nn3c(nnc3-c3cc(C)[nH]n3)SC2)cc1,?,5.1%,-4.2,9.6,-76.7*,-0.8
O=S(=O)(NCc1ccccn1)c1ccc(Cl)c(C(F)(F)F)c1,6.9,0.9%,1.8,-8.0,-5.1,1.3
CCOC(=O)c1c(NC(=O)CSc2cn(CCNC(=O)c3ccc(OCC)cc3)c3ccccc23)sc2c1CCCC2,·,0.1%,·,2.9,·,-0.3
O=C(c1cc2cc(Cl)ccc2o1)N1CCCC1,-3.1,0.7%,0.3,15.6,0.8,1.8
C(C#CCCCCCCCCC[n+]1ccccc1)#CCCCCCCCCC[n+]1ccccc1,-5.7&-5.1,?,-4.9&-0.9,-2.5&12.2,8.7&19.2,0.0&0.5
CCn1cc(/C=N\NC(=O)C2(C)CC2(Cl)Cl)c(C)n1 (centres undefined),4.5,5.2%,-1.6,-8.4,6.0,-0.4
O=C(CN1CCN(Cc2ccc3c(c2)OCO3)CC1)N1CCc2[nH]c3ccc(F)cc3c2C1,-2.6,-0.8%,-8.2&-1.7,-3.0,-8.1,-0.1
CCC(C)NC(=O)c1c(F)c(F)c(F)c(F)c1F (centres undefined),10.4,-3.4%,2.4,-2.7,9.2,0.8
COc1ccc(/C=C/C(=O)Nc2cc(S(=O)(=O)N3CCCCC3)ccc2N2CCCCC2)cc1OC,2.5,3.8%,-2.9,7.6,0.4,1.0
O=C(Cn1c(CO)nc2ccccc21)Nc1cc(C(F)(F)F)ccc1N1CCOCC1,8.1,-0.5%,-1.4,8.0,8.3,-1.1
COc1cc(NC(=S)NC(=O)c2ccccc2F)ccc1NC(=O)c1cccs1,-14.7,7.8%,-7.4,5.8,10.0,3.0
O=C(NC1CCCCNC1=O)c1ccc(Cl)cc1 (centres undefined),-1.6,-1.5%,-0.2,76.2,-1.0,0.6

# (next part)
Compound,CtBP-E1A inh,PINK1 modulator,D2 agonist,TRPML1 blocker,Six1-Eya2 inh,TRPML1 agonist
O=C(CS(=O)(=O)c1ccc(Cl)cc1)N1CCN(c2ccccc2)CC1,2.3,-0.6%,0.1,16.0,-2.7,-0.9
CC(C)OCCCNC(=O)CNC(=O)c1cccs1,4.8,-1.0%[38.3 µM],1.0,10.7,5.0,0.5
COC(=O)C/C=C/N(Cc1ccccc1OC)S(=O)(=O)CCl,9.6,-0.2%,-0.8,-9.2,1.2,-0.8
COc1ccc(C2C(C#N)=C(N)N(c3ccccc3C#N)C3=C2C(=O)CCC3)cc1CN1CCCC1 (centres undefined),-12.4,3.5%,-2.0,14.5,0.0,0.2
O=C(NCCCN1CCOCC1)C(=O)N/N=C/c1ccccc1,1.9,-1.2%,-4.6,-1.4,7.5,1.0
Cc1ccc2c(C)c(C(=O)N3CCC(O)(c4ccccc4)CC3)oc2c1C,6.5,-0.3%,-0.5,9.5,-9.1,-0.5
CC(=O)c1c(C)n(-c2ccc(Cl)cc2)c2ccc(O)cc12,-0.1,-1.3%,-2.1,5.2,-0.9,1.2
CCC(C(=O)NC1CCCC1)N(C(=O)c1snc(C(N)=O)c1N)c1ccc(OC)cc1 (centres undefined),7.7,3.8%,-4.4,8.4,10.9,2.3
CC(=O)c1cccc(NC(=O)CC2Oc3ccc(C)cc3NC2=O)c1 (centres undefined),2.2,-2.6%,-1.9,2.8,1.1,3.4
COc1cc(C=O)ccc1OCCOCCOc1ccccc1Cl,11.2,1.4%,-0.1,32.8,-0.8,1.6

# Compound profiles (already shown):
# COc1cc(C=O)ccc1OCCOCCOc1ccccc1Cl across the screens: CtBP-E1A inh: 11.2; PINK1 modulator: 1.4%; D2 agonist: -0.1; TRPML1 blocker: 32.8; Six1-Eya2 inh: -0.8; TRPML1 agonist: 1.6
# COc1ccc(C2C(C#N)=C(N)N(c3ccccc3C#N)C3=C2C(=O)CCC3)cc1CN1CCCC1 (centres undefined) across the screens: CtBP-E1A inh: -12.4; PINK1 modulator: 3.5%; D2 agonist: -2.0; TRPML1 blocker: 14.5; Six1-Eya2 inh: 0.0; TRPML1 agonist: 0.2

# Further compounds.
Compound,CtBP-E1A inh,PINK1 modulator,D2 agonist,TRPML1 blocker,Six1-Eya2 inh,TRPML1 agonist
COC(=O)[C@@H]1C[C@@]2(O)[C@@H](O)[C@@H](O)[C@@H](O)C[C@H]2N1CC1CCCCC1,-5.8,-0.4%,-4.4,-17.2,4.8,1.1
Cc1cccc2c3c([nH]c12)CCN(C)C3,·,0.7%,-4.0,0.6,-1.9,0.8
O=C(/C(=C/c1ccc(Cl)cc1)c1nc2ccccc2[nH]1)c1ccccc1,-7.8,-4.7%,-4.0,15.7,-1.5,5.2
CCOC(=O)NN=C1c2ccccc2-c2ccccc21,-4.5,1.4%,-1.8,9.6,-21.2,-0.4
O=C(NCC1CCCN1S(=O)(=O)c1cccs1)C(=O)Nc1ccc(F)cc1 (centres undefined),-3.9,2.5%,-1.9,-9.9,-1.4,-0.6
CCCCCCn1nnc2sc(-c3ccccc3)cc2c1=O,·,5.0%,·,2.7,·,0.9
